# Beta apoptosis – blocks beta cell apoptosis; INS-1E cytokine-induced death, ATP luminescence, 48 h; percent of positive-control rescue, neutral wells zero; protection from apoptosis, % (test concentration not listed); 300,000 compounds, 0.8% hits; AID 435005;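 active = all replicates at 75% or more, or half of them and the mean; inconclusive = half reach 75% but not the mean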;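 also: 0% = cytokine-treated negative control wells and 100% = positive control rescue; higher means more ATP so stronger rescue from cytokine killing; wells of about 40 µL received 100 nL stock; the first replicate is given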
# Calb FLC – C. albicans growth modulation with fluconazole | growth inhibition, % (no concentration beside the values) | C. albicans CaCi-2 (fluconazole-resistant clinical isolate) + fluconazole, Alamar Blue growth, 48 h | 300,000 compounds, 0.57% hits | AID 1979;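 active = most replicates above 75%; inconclusive = exactly half above 75%; inactive = most below 75%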;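 also: all wells also contain fluconazole at 8 µg/ml as a sub-toxic cotreatment; 0% = median of DMSO wells and 100% = median of geldanamycin control wells; wells of about 8 µL received 7.5 nL stock; the first replicate is given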
# MLL AF4-AF9 inh – blocks AF4 peptide binding to human AF9 | AlphaScreen, biotin-AF4 peptide binding to FLAG-AF9 | inhibition, % at 10 µM | 350,000 compounds, 0.47% hits | AID 651704;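 active = every replicate reaching a set inhibition limit, whatever the replicate mean, cut at about 25% in these data; inconclusive = mean inhibition reaches that limit but some replicates miss it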;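 also: 0% = plate neutral control median and 100% = total signal loss; the record names both 10 and 1 µM as test concentration; the first replicate is given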
# T cruzi repl – T. cruzi replication inhibition. T. cruzi beta-gal in NIH3T3, luminescence, 90 h. inhibition, % (concentration not given with the values). 300,000 compounds, 1.4% hits. AID 1885;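 active = mean inhibition across valid replicates above about 55%, limit read from the data; inconclusive = mean below that limit but half or more replicates reach it; inactive = mean below it, under half of replicates reach it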;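 also: signal also drops with host cell toxicity which is not excluded here; 0% = plate median of DMSO wells and 100% = zero luminescence signal; higher percent means less beta-gal luminescence so fewer parasites; stock transfer was 50 nL into about 50 µL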
# RanGTP-Impb inh – disruptors of Ran-importin-beta complex formation – biochemical, FRET, CFP-Ran, YFP-importin-beta, homogeneous, primary screen; cell-free CFP-Ran/YFP-importin-beta FRET ratio; inhibition, % (no concentration beside the values); 300,000 compounds, 1.1% hits;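 active = most replicates above 15%; inconclusive = exactly half above 15%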;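 also: 0% = DMSO wells and 100% = Ran loaded with GDP instead of GTP; wells of about 40 µL received 100 nL stock; the first replicate is given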
# LANA-H2A inh – blocks KSHV LANA binding to histone H2A/H2B; Q9QR71; cell-free LANA-H2A/H2B peptide, fluorescence polarization; inhibition, % (test concentration not listed); 320,000 compounds, 0.6% hits; AID 2629; in the data active = inhibition mostly above about 10%, no sharp cut-off; inactive = mostly below about 6.7%;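 also: stock transfer was 7.5 nL into about 10 µL; 0% = median of vehicle wells and 100% = median of positive control wells; one replicate is shown; the record names a cut of 25% in any replicate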
# Target sequence (Q9QR71 whole entry, looked up): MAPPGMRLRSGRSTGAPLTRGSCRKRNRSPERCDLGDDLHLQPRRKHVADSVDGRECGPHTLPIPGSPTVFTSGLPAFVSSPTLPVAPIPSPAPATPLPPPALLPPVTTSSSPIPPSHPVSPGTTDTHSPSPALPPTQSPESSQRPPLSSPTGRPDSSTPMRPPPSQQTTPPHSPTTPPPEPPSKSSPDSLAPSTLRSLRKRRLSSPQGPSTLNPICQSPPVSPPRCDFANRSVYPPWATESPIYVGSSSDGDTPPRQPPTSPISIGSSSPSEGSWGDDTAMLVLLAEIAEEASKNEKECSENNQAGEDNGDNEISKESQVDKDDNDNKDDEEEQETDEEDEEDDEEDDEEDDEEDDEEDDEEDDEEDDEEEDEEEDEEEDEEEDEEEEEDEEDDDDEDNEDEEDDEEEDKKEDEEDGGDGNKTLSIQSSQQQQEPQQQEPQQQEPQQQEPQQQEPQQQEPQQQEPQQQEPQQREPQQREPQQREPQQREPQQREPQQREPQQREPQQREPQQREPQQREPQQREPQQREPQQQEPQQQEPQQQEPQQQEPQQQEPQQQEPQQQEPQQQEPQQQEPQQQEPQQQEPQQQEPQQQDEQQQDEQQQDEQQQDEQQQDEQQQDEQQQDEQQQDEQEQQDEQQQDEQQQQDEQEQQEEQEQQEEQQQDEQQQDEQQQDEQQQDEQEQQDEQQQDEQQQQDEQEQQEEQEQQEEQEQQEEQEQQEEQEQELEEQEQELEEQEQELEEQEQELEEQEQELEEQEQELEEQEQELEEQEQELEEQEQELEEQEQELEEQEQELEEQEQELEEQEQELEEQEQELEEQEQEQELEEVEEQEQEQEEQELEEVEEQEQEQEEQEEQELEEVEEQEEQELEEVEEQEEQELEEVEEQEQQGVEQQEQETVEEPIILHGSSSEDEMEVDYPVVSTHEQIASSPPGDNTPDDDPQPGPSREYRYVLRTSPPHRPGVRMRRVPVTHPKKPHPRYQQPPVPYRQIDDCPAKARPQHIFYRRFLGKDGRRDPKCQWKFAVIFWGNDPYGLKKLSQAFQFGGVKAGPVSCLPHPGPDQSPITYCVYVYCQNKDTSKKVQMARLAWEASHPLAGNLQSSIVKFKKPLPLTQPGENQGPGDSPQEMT
# A1 inh – inhibitors of the anti-apoptotic protein A1, read as caspase activation | MEF A1-2A-BIM cells, Caspase-Glo 3/7 luminescence, 3 h; percent of clofoctol response, vehicle zero | caspase activation, % (concentration not given with the values) | 330,000 compounds, 0.066% hits | AID 2462;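 active = over half of replicate activation scores above 10%, or exactly half above 10 with the replicate mean above 10; inconclusive = replicate mean below 10 yet half the replicates above 10; inactive = over half of replicates below 10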;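 also: wells of about 30 µL received 50 nL stock; many hits fall short of the cut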
# Vif A3G – inhibitors of Vif binding to APOBEC3G peptide, primary screen, biochemical, TR-FRET, GST-Vif 1-94, biotin-A3G peptide, dose response retest (AID 1117319). TR-FRET GST-Vif / biotin-A3G peptide binding; higher % means a stronger effect; test concentration not given here; strong numbers were not always called active. inhibition, %, or IC50 in µM where a hit was titrated. 260,000 compounds, 0.57% hits;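 active = above the screen mean plus three standard deviations and confirmed in dose response; inconclusive = results disagree or hit not tested in dose response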;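 also: Vif residues 1-94 fused to GST binding biotinylated APOBEC3G peptide 110-148; 0% = full assay without inhibitor and 100% = GST in place of GST-Vif; retest series ran down from 100 µM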
# * marks the source's active call; other numbers are inactive results; ? = inconclusive; · = not tested or not shown.
SMILES,Beta apoptosis,Calb FLC,MLL AF4-AF9 inh,T cruzi repl,RanGTP-Impb inh,LANA-H2A inh,A1 inh,Vif A3G
CCc1ccc2nc(N(CCN(C)C)C(=O)c3ccc4ccccc4c3)sc2c1,-10.3,-1.4,·,25.9,0.7,-4.1,0.7,-9.3%
CC1CCN(c2ccccc2NC(=O)c2ccc(C#N)cc2F)CC1,·,29.8,-1.7,26.9,0.5,-3.6,-1.2,-16.2%
CN(Cc1ccccc1)C(=O)CCn1c(=O)c2cccn2c2cccnc21,-10.0,40.1,-0.7,7.6,1.6,-1.9,0.6,·
Cc1ccc(NC(=O)CSCC(=O)O)c(C)c1,·,?,·,-6.3,-1.1,1.2,1.1,-4.0%
COCCN1C(=O)c2ccccc2C(C(=O)N2CCN(c3ccccn3)CC2)C1c1ccc(F)cc1 (stereo not drawn),·,-1.9,·,-5.5,0.2,·,·,15.9%
CCn1c(SCC(=O)c2ccccc2)nc2c(c1=O)SC(C)C2 (stereo not drawn),1.3,2.7,·,11.1,2.9,-6.3,0.1,10.1%
CCOC(=O)c1cn(-c2nc(-c3ccc(Cl)c(Cl)c3)cs2)c2c(F)c(N3CCOCC3)c(F)cc2c1=O,2.2,-14.1,·,41.5,4.7,0.7,1.9,-6.6%
O=C(Nc1ccc(S(=O)(=O)Nc2ncccn2)cc1)c1ccccc1NS(=O)(=O)c1ccc(Cl)cc1,-1.6,0.8,-4.5,-3.5,0.0,-7.1,1.7,-2.5%
Fc1ccc(N2CCN(Cc3cnc(N4CCOCC4)s3)CC2)cc1,-4.4,-13.7,0.2,12.6,7.2,-235.7,-0.2,-2.0%
COCCCNc1nc(SCc2ccccc2)nc2sc3c(c12)CCC3,9.2,19.5,·,25.4,1.1,-0.8,-0.4,5.2%
COc1ccccc1NC(=O)C(C)Sc1nc2ccccc2c(=O)n1CC1CCCO1 (stereo not drawn),3.3,-8.7,4.3,1.6,0.6,1.7,0.2,-10.3%
CCc1nnc(NC(=O)CSc2nnc3nc(C)cc(C)n23)s1,5.5,-10.6,-9.3,-4.9,-0.3,-0.7,-0.5,·
c1ccc(-c2cc3nccc(-c4ccccn4)n3n2)cc1,-2.7,7.4,-1.5,6.5,3.7,-1.3,-2.0,10.2%
CCOc1ccccc1N1CCN(C/C=C/c2ccc(N(C)C)cc2)CC1,2.5,-25.8,·,16.9,2.1,-1.4,-1.7,0.6%
Cc1c(C#N)c(NC(=O)c2ccccc2)n(Cc2ccccc2)c1C,4.0,3.0,·,8.9,-1.6,-1.4,1.1,-0.8%
O=[n+]1cc(-c2ccc(Cl)cc2)n([O-])c2c1CCCCC2,1.4,2.9,-8.1,-7.6,1.0,5.5,0.0,7.1%
CCOC(=O)c1c(NC(=S)NC(=O)/C=C/c2cccs2)sc(C)c1C,-1.9,-6.8,9.4,2.8,1.9,-0.4,0.3,20.9%
O=C(NCCc1cnc[nH]1)Nc1cccc(C(F)(F)F)c1,-3.9,9.8,2.9,44.4,2.1,1.3,-0.5,0.9%
O=C(NCC(c1ccco1)N1CCCC1)c1ccc(S(=O)(=O)Nc2ccccc2F)cc1 (stereo not drawn),·,-7.6,0.6,22.2,0.9,0.5,0.4,-6.2%
CCOC(=O)C1(Cc2cccc(F)c2)CCN(C(=O)Cn2cnnn2)CC1,-1.1,-8.1,-5.3,5.8,1.9,-1.9,0.2,14.3%
Cc1nn(C)cc1/C=N\NC(=O)c1ccc2c(c1)c(C)c(C)n2Cc1ccccc1,-13.0,-2.9,·,-11.7,-6.8,0.3,-0.2,0.6%
CCNC(=O)O/N=C(\C)c1sc(-c2ccc(Cl)cc2)nc1C,8.6,-19.6,·,8.5,-2.3,5.3,-13.9,0.7%
Cc1ccc2nc(C)cc(N/N=C/c3cccc(O)c3)c2c1,2.3,-0.1,7.5,-7.3,?,0.7,0.0,·
CCC(C)[C@H](NC(=O)OC(C)(C)C)C(=O)N/N=C/c1ccc2cc(OC)ccc2n1 (stereo partly drawn),-3.2,-8.6,·,4.1,2.9,3.6,-0.1,-4.2%
CC(=O)NCC1(O)CCCC(C)C1 (stereo not drawn),1.2,1.3,-8.4,-11.1,4.5,19.3*,0.1,-7.9%
CCCC1(c2ccccc2)NC(=O)N(CC(=O)NCc2ccc(OC)cc2)C1=O (stereo not drawn),2.5,0.7,-1.0,-11.3,-0.1,7.4,0.8,-7.2%
O=C(CCC1CCCN(C(=O)c2cccnc2)C1)NCc1ccccc1F (stereo not drawn),-3.7,-6.6,2.4,-2.8,?,5.3,0.0,·
CC1CCCC(C)N1CCCNC(=O)c1cc2c(=O)n(C)c3ccccc3c2n1C (stereo not drawn),-0.2,6.5,-0.1,6.2,6.3,2.0,1.3,1.1%
Cc1ccc(C)c(C(=O)CN2C(=O)c3ccccc3C2=O)c1,-2.1,-5.1,0.5,-4.7,-2.7,-4.9,0.9,·
C/C(=N\NC(=O)CSc1nc2ccccc2o1)c1ccc(O)cc1,-5.1,-5.9,-2.8,-18.0,-3.5,5.5,-0.2,?
COc1ccc(N2CCN(S(=O)(=O)c3ccc(C(=O)NC4CCCC4)cc3)CC2)cc1,·,-5.9,4.1,9.9,-0.1,·,·,?
COc1cc(NC(=O)COC(=O)CC2CC3CCC2C3)cc(OC)c1 (stereo not drawn),-4.2,·,-3.4,·,·,-0.1,0.6,-5.0%
O=C(CSc1nc(-c2ccc(F)cc2)cc(C(F)(F)F)n1)Nc1ccc2c(c1)OCO2,6.7,6.8,·,3.1,-2.4,-4.0,-0.2,31.0%
COc1cccc(N2CCN(c3ncnc4c3cnn4-c3ccc(C)cc3C)CC2)c1,48.8,11.6,0.1,26.4,0.6,5.0,0.2,2.6%
COCCn1c(C)cc(C(=O)CN2C(=O)NC3(CCCCCCC3)C2=O)c1C,-4.8,-23.0,3.3,2.9,-0.8,-4.3,-0.1,8.5%
CCOC(=O)c1sc2c(c1C)C(c1cccs1)C1=C(CCCC1=O)N2 (stereo not drawn),3.0,0.9,·,39.9,?,-2.5,-0.1,21.0%
COc1cccc(OCCSc2nnc3sc4ccccc4n23)c1,-4.8,11.8,·,-0.9,0.4,2.4,1.6,-7.2%
O=C(NCCCl)Nc1cccc(Br)c1,-6.6,-5.0,-0.4,6.7,2.2,-1.5,?,5.0%
N#CCO/N=C(\c1ccccc1)c1ccncc1,-1.0,-5.9,·,-12.4,5.5,2.2,-0.2,10.4%
Cc1c(N2C(=O)/C(=C/c3ccccc3)SC2=S)c(=O)n(-c2ccccc2)n1C,1.4,-4.5,·,8.4,1.8,-2.6,2.6,0.0%
CCOC(=O)Cc1csc(NC(=O)CN(C)S(=O)(=O)c2ccc3c(c2)CCC(=O)N3)n1,-4.3,·,4.8,·,·,9.3,0.4,·
Cc1cccc(NC(=O)CN2C(=O)CNC2=O)c1,3.9,-0.5,·,2.6,-5.0,0.1,-0.7,23.9%
COc1ccccc1CN1C(=O)c2ccncc2C1=O,·,-4.8,-11.0,-12.6,1.8,·,·,-2.5%
Cc1cc(C(=O)OCC(=O)N2CC(C)CC(C)C2)c(C)o1 (stereo not drawn),·,-50.3,·,0.6,5.1,-4.8,1.7,9.6%
O=C(/C=C/c1ccc(Cl)c([N+](=O)[O-])c1)c1ccc(O)cc1,6.5,-75.6,2.4,-0.9,1.7,-1.3,0.3,·
Cc1cc2c(NCCc3ccccc3)ncnc2s1,107.6*,-5.2,1.8,3.8,0.3,2.2,-1.2,·
COCCN(C(=O)COC(=O)CCSc1ccc(F)cc1)c1c(N)n(Cc2ccccc2)c(=O)[nH]c1=O,-6.0,-6.5,0.8,-15.1,·,-0.3,0.0,-2.1%
Cc1ccccc1N1CCN(C2CCCN(C(=O)c3ccnn3C)C2)CC1 (stereo not drawn),0.7,-3.0,-2.4,3.7,0.4,0.1,-1.1,0.0%
CC(=O)N1c2ccc(S(=O)(=O)N3CCCC(C(=O)Nc4ccc(C)cc4C)C3)cc2CC1C (stereo not drawn),5.7,-0.5,4.9,4.9,?,-1.0,0.7,·
O=C(CSc1cccc[n+]1[O-])Nc1cccc(S(=O)(=O)NC2=NCCCCC2)c1,2.6,-5.7,-1.9,-24.0,3.5,-10.1,-0.5,19.1%
COc1cccc(NC(=O)c2ccncc2)c1,-4.2,5.8,·,0.9,-0.2,4.1,-0.9,-0.8%
COc1cc(-c2cn(S(=O)(=O)c3cccc4nsnc34)nc2N)cc(OC)c1OC,-1.5,26.1,·,43.4,4.1,-0.2,0.0,-3.6%
O=C(NCCc1ccccc1)c1ccc(Br)o1,-3.8,-21.1,-54.5,3.8,-3.8,-1.0,0.2,-5.0%
COc1ccc(Cc2[nH]n3c(=O)c(Cl)c(C)nc3c2-c2ccccc2)cc1,-1.6,-7.3,-2.8,-7.6,-5.1,-1.6,0.5,23.6%
CCCNC(=O)c1ccc(N2CCC3(CC2)CC(c2ccccc2)=NO3)c(NC(=O)c2cccc(C)c2)c1,-13.2,11.5,-1.8,10.4,0.0,-0.3,0.2,·
N/C(Cc1ccc(Cl)cc1)=N\OC(=O)c1ccc2ccccc2c1,2.8,-3.7,·,14.9,2.2,-1.8,?,-1.6%
O=C(O)/C=C/c1cccc(OCc2ccccc2)c1,-1.3,-4.5,-0.6,-5.8,-3.0,-0.8,-1.1,-0.8%
CCOC(=O)c1c(NC(=O)C2CC=CCC2C(=O)O)sc(C)c1CC (stereo not drawn),-1.4,9.8,-2.8,-5.8,-1.7,-0.2,0.4,-4.9%
O=C(Nc1ccc(C(=O)N2CCCCC2)cc1)c1ccccc1Cl,1.8,-9.0,-1.8,-24.2,2.9,3.3,-2.2,-1.1%
Nc1nc(=S)c2ncn(C3CCCC3)c2[nH]1,-1.0,10.5,-1.7,-7.5,5.1,-1.8,0.5,4.2%
# New compounds follow:
SMILES,Beta apoptosis,Calb FLC,MLL AF4-AF9 inh,T cruzi repl,RanGTP-Impb inh,LANA-H2A inh,A1 inh,Vif A3G
COc1ccc(N=Cc2ccc(-c3ccccc3)o2)cc1,-2.5,-9.5,-1.3,-6.2,2.6,-6.8,1.1,·
CCN1CCN(c2nc3c(C)cccn3c(=O)c2/C=C(\C#N)C(=O)NC)CC1,1.1,-8.0,-2.9,12.9,-58.0,-3.4,1.0,1.0%
CN(C(=O)c1cccc(NC(=O)C2CCN(C(=O)OC(C)(C)C)CC2)c1)C1CCC1,9.6,·,-1.7,·,·,4.4,0.8,·
COc1ccc(/C=C2\SC(=O)N(CCNC(=O)C3CC4C=CC3C4)C2=O)cc1 (stereo not drawn),-22.1,-10.0,1.1,9.7,2.2,1.4,-0.8,7.6%
Cc1c(C(=O)C(C)C)n(C)c2ccccc12,1.5,-5.2,·,-7.7,2.8,-7.4,0.7,10.7%
O=C(CSc1nncn1-c1ccccc1)N1CCCC1,-9.0,8.7,-0.4,-16.7,0.5,1.3,-0.6,·
O=C(NCc1ccc2c(c1)OCO2)c1c(F)c(F)c(F)c(F)c1F,3.5,-57.8,·,-3.0,0.3,0.9,0.9,?
O=C(Cn1nnc(-c2ccc(Cl)cc2)n1)NC1CCN(Cc2ccccc2)CC1,0.2,8.9,·,?,-2.9,1.7,1.1,-5.3%
O=C(CSc1nnc(SCc2ccccc2Cl)s1)N/N=C/c1c[nH]c2ccccc12,9.7,1.0,·,-4.4,?,-0.2,0.1,·
O=S(=O)(Nc1cccc(-c2nnco2)c1)c1ccc(F)cc1F,-2.4,5.3,-0.6,-5.9,3.6,-0.4,0.1,-6.7%
COCCCNC(=O)/C(C#N)=c1\s/c(=C\c2ccccc2OC(F)F)c(=O)n1CCCOC,5.8,2.7,·,6.1,-4.6,5.9,-0.3,-1.3%

# High-throughput results as filed in PubChem BioAssay.
